# Rango-impB inh: qHTS Assay for Inhibitors of Rango (Ran-regulated importin-beta cargo) - Importin beta complex formation; Importin subunit beta-1 (Homo sapiens), Q14974; Rango CFP/YFP FRET sensor + importin beta, 45 min; Potency, µM (highest dose often 92.2 µM), for the others: top-dose inhibition of complex formation; 0.031% of 340,000 active; active = rising FRET ratio curve, often small or poorly fitted; inconclusive = mostly compound fluorescence or quenching in the first reads; inactive = flat curves in all reads;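 further: potency means the concentration at half of the fitted maximal effect; 0% = DMSO wells and 100% = buffer wells lacking importin beta; nearly all actives have a fitted effect of over 15% in size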
# Target sequence (Q14974 whole entry, looked up): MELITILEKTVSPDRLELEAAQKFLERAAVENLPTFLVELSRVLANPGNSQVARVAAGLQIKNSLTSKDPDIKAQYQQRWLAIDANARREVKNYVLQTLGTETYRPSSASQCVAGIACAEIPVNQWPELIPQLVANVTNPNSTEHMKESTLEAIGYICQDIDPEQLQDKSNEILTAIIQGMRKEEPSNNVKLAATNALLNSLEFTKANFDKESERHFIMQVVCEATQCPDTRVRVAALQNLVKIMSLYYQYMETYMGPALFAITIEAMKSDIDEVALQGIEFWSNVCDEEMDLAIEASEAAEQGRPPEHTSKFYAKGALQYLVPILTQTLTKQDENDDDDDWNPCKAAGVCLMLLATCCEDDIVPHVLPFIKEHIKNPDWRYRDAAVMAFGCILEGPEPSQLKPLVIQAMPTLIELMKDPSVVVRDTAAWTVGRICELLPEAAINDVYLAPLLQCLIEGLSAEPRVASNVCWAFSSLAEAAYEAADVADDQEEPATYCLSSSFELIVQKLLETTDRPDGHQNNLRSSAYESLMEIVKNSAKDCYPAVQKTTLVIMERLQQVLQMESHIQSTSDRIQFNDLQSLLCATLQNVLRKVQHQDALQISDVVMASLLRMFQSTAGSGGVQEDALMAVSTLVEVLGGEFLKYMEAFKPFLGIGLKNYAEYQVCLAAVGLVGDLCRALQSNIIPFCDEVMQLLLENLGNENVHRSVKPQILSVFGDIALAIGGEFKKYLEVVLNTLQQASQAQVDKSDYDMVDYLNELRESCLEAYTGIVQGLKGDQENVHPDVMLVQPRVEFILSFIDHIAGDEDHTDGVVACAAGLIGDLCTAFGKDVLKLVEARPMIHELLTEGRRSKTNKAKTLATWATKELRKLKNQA
#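 FRET biosensor Rango (snurportin 1 IBB between N-terminal EYFP and C-terminal Cerulean), 50 nM in PBS/1 mM DTT/0.02% Tween-20/0.1% BSA, preincubated 5 min RT with compound; 0.125 microM importin beta added, 45 min RT, CFP/YFP FRET ratio read.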
# Rango dissoc inh: qHTS Assay for Inhibitors of RanGTP induced Rango (Ran-regulated importin-beta cargo) - Importin beta complex dissociation; Snurportin-1 (Homo sapiens) + GTP-binding nuclear protein Ran (Homo sapiens) + Importin …; Biochemical FRET Rango-importin beta, RanGTP-induced dissociation; Potency, µM (doses to about 46.1 µM), inactives show at the highest dose activity change, negative = inhibition; 0.071% of 340,000 active; active means falling FRET ratio curve, often poorly fitted, with flat reads before Ran was added; inconclusive means other falling curves, or compound fluorescence or quenching; inactive means flat or rising ratio curve;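 further: potency means the concentration at half of the fitted maximal effect; % of control where 0% means no effect; nearly all actives have a fitted effect of over 45% in size; -100% = wells without RanGTP and RCC1; the record marks most hits as doubtful in a second field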
#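 Rango FRET biosensor (snurportin-1 IBB flanked by N-terminal EYFP and C-terminal CFP10) at 0.1 uM, with 0.25 uM importin beta in PBS, 1mM DTT, 0.02% Tween-20, 0.1% BSA. 0.6 uM Ran, 2mM GTP and 0.2 uM RCC1 were then added for 45 min at room temperature. Inhibition read as loss of FRET rise.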
# miR-21 reporter: qHTS Assay for Modulators of miRNAs and/orActivators of miR-21; HeLa miR-21 FLuc reporter, luciferase, 48 h; Potency, µM (series often up to 38.3 µM), for inactives: at the top dose reporter change, positive = more light; 340,000 tested, under 10 active; active = well fitted rising curve with a large enough effect; inconclusive = small, poorly fitted or top-dose-only effect; inactive = no such curve, though single readings can be large or run the other way;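 further: % of control where 0% means no effect; miR-21 action dims this reporter so a rising signal means less miR-21 action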
#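 HeLa cells stably expressing CMV-driven firefly luciferase with a downstream miR-21 binding sequence, endogenously expressing miR-21, were treated with titrations (up to about 40uM final) for 48 hours at 37 degree Celsius. Luciferase luminescence was read after lysis.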
# GLA inh pH 4.5: qHTS Assay for Inhibitors of Human alpha-Galactosidase at pH 4.5 | Alpha-galactosidase A (Homo sapiens), P06280 | purified enzyme, 4-MU-alpha-Gal fluorescence, pH 4.5 | activity change, negative = inhibition, % at 105 µM | 230,000 tested, under 10 active | AID 1467, 2008; inconclusive = small, poorly fitted or top-dose-only inhibition, or a rising curve; inactive = flat fitted curve, though single readings scatter; no compound was filed as active;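 further: 0% = full activity with enzyme and -100% = basal without enzyme; dose as in the result columns while the protocol names 77 µM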
# * hit, by the source's call; ? = inconclusive; . = not tested or not shown; & = joins results of further samples. Only part of the results is shown; count on the stated rates, not on these rows.
SMILES	Rango-impB inh	Rango dissoc inh	miR-21 reporter	GLA inh pH 4.5
COc1ccc(-c2cc3ccc(OC(C)C(=O)O)cc3oc2=O)cc1 (centres undefined)	?	?	-38%	.
COc1ccc(C(=O)CC(Nc2ccc([N+](=O)[O-])cc2)c2ccc(Cl)cc2)cc1 (centres undefined)	-4.9%	3%	30%	-9
Cc1cc(N2CCN(C)CC2)nc2ccc(NC(=S)N3CCCCC3)cc12	-1.6%	-10%	-51%	-1
CCc1nnc(NC(=O)Cc2ccc(S(=O)(=O)N3CCCCC3)cc2)s1	-0.6%	6%	.	.
CCCC(=O)Nc1sc(-c2ccccc2)c(-c2ccccc2)c1C(=O)O	0.4%	13%	.	.
O=C(CSc1nc2scc(-c3ccccc3)c2c(=O)[nH]1)NCCc1ccccc1	-3.1%	3%	-1%	.
N#Cc1ccccc1CSc1nc2ccsc2c(=O)n1Cc1ccccn1	?	-17%	-76%	-2
COc1ccc(OCCCC(=O)OC(C)C(=O)Nc2ccc(C)cc2)cc1 (centres undefined)	0.8%	5%	.	.
COc1ccc(-c2cc(C(=O)NCCN3CCOCC3)c3ccccc3n2)cc1OC	-4.8%	-10%	-2%	.
Cc1ccc(N(C)C(=O)N2CCN(c3ccccn3)CC2)cc1	-0.6%	44%	-5%	-3
Oc1c(Br)cc(Cl)cc1C=Nc1ccc(N2CCOCC2)cc1	?	?	-2%	-11
COc1ccc(NC(=O)CSc2nc3nc(C)cc(C)c3c(=O)[nH]2)cc1OC	0.3%	-3%	.	.
c1ccc(N=P(c2nc3ccccc3o2)(N2CCOCC2)N2CCOCC2)cc1	0.4%	0%	-31%	3
O=c1cc(COc2ccc(Cl)c(Cl)c2)nc2sccn12	0.7%	2%	-39%	-10
CC1CCN(S(=O)(=O)c2ccc(C(=O)N3CCN(c4ccccc4F)CC3)cc2)CC1	-0.9%	11%	-5%	-6
COc1cc(NC(=O)CN2C(=O)c3ccccc3C2=O)c(C(=O)O)cc1OC	3.8%	-13%	-1%	-5
Nc1cc2c(cc1[N+](=O)[O-])-c1ccccc1C2=NO	4.2%	-6%	.	.
CCN(CC)S(=O)(=O)c1ccc(C)c(NC(=O)c2cc(C)oc2C)c1	-0.2%	-1%	-1%	4
CCOC(=O)c1c(C)[nH]c(C)c1C(=O)COC(=O)c1c(OC)cccc1OC	3.2%	2%	-9%	5
O=C(c1ccccc1F)N1CCN(Cc2nc3sc4c(c3c(=O)[nH]2)CCCC4)CC1	-0.8%	1%	7%	.
Cc1ccc(C)c(OCc2nnc(SCC(=O)NC(=O)NCc3ccco3)o2)c1	-0.7%	3%	0%	-1
Cc1c(NC(=O)c2cc(CC(C)C)on2)c(=O)n(-c2ccccc2)n1C	-4.1%	-4%	-5%	?
Cc1ccc(CN(Cc2ccccn2)C(=O)Nc2c(F)cccc2F)cc1	3.9%	8%	-1%	.
Cc1cc(Cl)ccc1OCCCC(=O)NCCCn1ccnc1	-4.3%	18%	-1%	7
CN(C)C(=O)CCc1ccc2c3c([nH]c2c1)[C@]1(CCc2ccccc2)[C@@H](C(=O)N2CCCCC2)C[C@H](CC(=O)NCCC2=CCCCC2)C(=O)N1CC3	2.2%	-2%	.	.
Cc1ccc(S(=O)(=O)/N=C(\c2ccccc2)N(C)S(=O)(=O)c2ccccc2)cc1	2.2%	-2%	0%	-3
CN(C(=O)c1ccc(NC(=O)Cc2cccc(NC(=O)C3CCCN(C(=O)C4CCC4)C3)c2)cc1)C1CCCC1 (centres undefined)	-2.1%	-3%	.	.
O=C(O)c1ccc(CS(=O)c2cccc(C(F)(F)F)c2)o1 (centres undefined)	-2.6%	-5%	23%	-8
COc1ccc(CN2CCN(C(=O)c3ccccc3F)CC2)c(OC)c1OC	-1.9%	-19%	.	.
O=C(CCC(=O)c1ccc(Br)cc1)Nc1cccnc1	-1.6%	6%	1%	13
CCCN(CCC)CCNC(=S)Nc1ccc2nc3n(c(=O)c2c1)CCCCC3	6.8%	-5%	3%	-4
CC(C)C(NC(=O)OCc1ccccc1)C(=O)O (centres undefined)	0.0%	-5%	-1%	-1

# Quoted from the listing:
# miR-21 reporter result of CC(C)C(NC(=O)OCc1ccccc1)C(=O)O (centres undefined) = -1%
# GLA inh pH 4.5 result of O=C(CCC(=O)c1ccc(Br)cc1)Nc1cccnc1 = 13
# GLA inh pH 4.5 result of Cc1ccc(S(=O)(=O)/N=C(\c2ccccc2)N(C)S(=O)(=O)c2ccccc2)cc1 = -3

# Next section
SMILES	Rango-impB inh	Rango dissoc inh	miR-21 reporter	GLA inh pH 4.5
O=c1c2cc(-c3ccccc3)sc2nc2n1N=C(c1cccs1)CS2	0.6%	1%	-63%	2
CC(C)C(=O)NCCc1nc2ccccc2n1CCOc1ccccc1	4.8%	1%	-8%	-1
COc1ccccc1/C=C1\NC(=S)N(CC2CCCO2)C1=O (centres undefined)	4.4%	?	-19%	-11
COc1ccc(NC(=O)C2CCCN(S(=O)(=O)c3ccc(C)cc3)C2)cc1OC (centres undefined)	0.5%	17%	-3%	-1
O=C(O)c1ccc(/C=N/NC(=O)c2ccc(NS(=O)(=O)c3cccs3)cc2)cc1	-3.5%	-6%	-16%	-2
O=C(O)c1cccc(S(=O)(=O)N(Cc2ccccc2)c2cccc(C(F)(F)F)c2)c1	2.9%	16%	-2%	.
COc1ccc(CNCc2cccc(OC)c2OC)cc1Br	3.7%	-1%	2%	3
COc1ccc(CCNC(=O)CCc2nc3ccccc3[nH]2)cc1OC	-0.2%	9%	-11%	5
CCCCN(CC)CCCNC(=O)c1cc2c(=O)n(CC)c3ccccc3c2s1	-4.1%	-2%	?	.
CC(C)(C)NS(=O)(=O)c1ccc(CCC(=O)Nc2ccc3c(c2)OCO3)cc1	-4.7%	0%	-3%	3
CCOc1ccc(Br)cc1S(=O)(=O)Nc1cccc(S(=O)(=O)N(C)C)c1	-1.5%	2%	-1%	-10
COc1ccccc1NC(=O)CCCc1c[nH]c2ccccc12	-3.0%	1%	-13%	-3
Cc1ccc(C(=O)OCC(=O)NCC2CCCO2)c(C)c1 (centres undefined)	?	-4%	-2%	0
Cc1cc(C)c(S(=O)(=O)Nc2c(C)n(C)n(-c3ccccc3)c2=O)cc1[N+](=O)[O-]	-1.7%	3%	-3%	.
C=CCn1c(COc2ccc3c(c2)CCCC3)nnc1SCC(=O)Nc1cccc(SC)c1	1.8%	-14%	1%	-6
CCOC(=O)N1CCC(NC(=O)CCc2c(C)nc3c(c(C)nn3C(C)(C)C)c2C)CC1	0.3%	-11%	-1%	-7
O=C(CSc1nnc(-c2ccccc2)o1)NC1CCS(=O)(=O)C1 (centres undefined)	1.0%	29%	-3%	3
O=C1NCCc2c1[nH]c1c(Cl)ccc(Cl)c21	-1.4%	-6%	6%	0
CCCn1cc(S(=O)(=O)c2ccc(C)cc2)c(=O)c2cc(OC)c(OC)cc21	1.8%	-6%	-5%&-10%	.
COc1ccc(-n2cc(CNCC3CC(=O)N(C4CC4)C3)c(-c3ccccc3Cl)n2)cc1 (centres undefined)	-0.6%	-6%	-2%	4
COc1ccc(Br)cc1CNC(=O)CCC(=O)n1nc(C)c2ccccc21	-1.9%	19%	-1%	.
COc1ccc(C)cc1NC(=O)CCNS(=O)(=O)c1ccc2c(c1)CC(C)N2C(C)=O (centres undefined)	-0.2%	-1%	-3%	.
CN(C)C(CNC(=O)C1CCN(S(=O)(=O)c2ccccc2)CC1)c1ccccc1 (centres undefined)	-4.4%	0%	1%	5
CC1CCCCN1C(=O)Cc1ccc(Cl)cc1 (centres undefined)	-0.3%	-9%	-33%	-11
O=C(C1CCN(S(=O)(=O)c2ccc(Cl)cc2)CC1)N1CCCC1	2.6%	-6%	1%	.
COc1cccc(OCCNc2cc(Cl)ccc2[N+](=O)[O-])c1	-3.3%	4%	-58%	-10
O=C(N/N=C/c1ccc(O)cc1)c1cccc(N/N=C/c2ccc(O)cc2)c1	1.7%	-3%	-58%	-6
O=C(Cn1cncn1)NCc1cccc2ccccc12	3.2%	11%	-6%	-3
O=C(C(=O)N1CCN(Cc2ccccc2)CC1)c1c[nH]c2ccccc12	-2.3%	-13%	.	.
N#Cc1cc2[nH]c3ccccc3c2[n+](-c2ccc([N+](=O)[O-])cc2)c1N	-3.9%	-12%	19%	-14
COc1ccc(NC(=S)N(C)CC2COc3ccccc3O2)cc1 (centres undefined)	1.9%	-7%	-36%	14
C=CCn1c(SCc2csc(C)n2)nc2sc3c(c2c1=O)CCC(C)C3 (centres undefined)	4.9%	-6%	-20%	-3
CC(C)OC(=O)CN1C(=O)C(=O)c2ccccc21	2.8%	8%	0%	-7
CC(=O)c1cccc(NC(=S)N2CCc3ccccc32)c1	-5.2%	-5%	-36%	.
CCOc1cc(S(=O)(=O)N2CC=C(c3ccc(F)cc3)CC2)c(OCC)cc1-n1cnnn1	0.6%	2%	?	-10
Cc1cccc(C(C(N)=O)c2ncc(C(F)(F)F)cc2Cl)c1 (centres undefined)	0.6%	4%	-3%	-11
COc1ccccc1-c1c(C(F)(F)F)oc2cc(OS(C)(=O)=O)ccc2c1=O	3.3%	-14%	5%	-11
CC(=O)Nc1ccc(S(=O)(=O)N[C@@H](C)C(=O)N2CCN(C/C=C/c3ccccc3)CC2)cc1	5.6%	0%	.	.
COCCN(Cc1cc2cc3c(cc2n2nnnc12)OCO3)C(=O)c1ccccc1F	-2.7%	-4%	-6%	-1
CC1=C(C(=O)N2CCOCC2)C(c2ccccc2F)C2=C(CCCC2=O)N1 (centres undefined)	-2.9%	0%	-1%	7
COc1ccc(C(=O)N/N=C/C(C)c2ccccc2)cc1OC (centres undefined)	-5.0%	-10%	18%	-15
COC(=O)C1CCN(C(=O)COC(=O)Cc2c[nH]c3ccccc23)CC1	0.8%	0%	0%	3
O=c1sc(Nc2ccccc2)nc2ccsc12	?	-25%	-56%	0
Cc1oc(-c2cc(F)ccc2F)nc1CN1CCN(c2ncnc3ccccc23)CC1	-0.7%	0%	-14%	-10
Cc1ccc(-c2nc3ccccc3nc2Cl)cc1	-4.5%	?	-12%	-10
COc1cc(NC(=O)Cn2cnc3c(OCc4ccccc4)ncnc32)cc(OC)c1OC	0.7%	-8%	.	.
Oc1ccc(-c2cnc3ccccc3n2)cc1	?	-17%	.	.
O=C(NCc1ccncc1)Nc1ccccc1Cl	0.4%	-1%	-8%	15
N/C(=N\N=C\c1ccc2c(c1)OCO2)SC1CC(=O)N(c2ccc(C(=O)O)cc2)C1=O (centres undefined)	-4.7%	-3%	2%	-25
Cc1[nH]c(C)c(S(=O)(=O)N(C)Cc2ccccc2)c1C(=O)N1CCCCC1	3.4%	3%	0%	.
CCn1c(COc2ccc3ccccc3c2C)nnc1SCC(=O)Nc1cccc(C(=O)O)c1	2.6%	-2%	-3%	.
CCCCCCCCS(=O)C1CCS(=O)(=O)C1 (centres undefined)	-0.2%	1%	-3%	6
COC(=O)c1cn(NC(=O)C2CCC(C(C)(C)C)CC2)c(=O)c2ccccc12 (centres undefined)	-3.9%	-8%	-5%	-24
Cc1cc(=O)oc2c3c(ccc12)OC/C3=N/N	7.2%	-7%	-5%	5
Fc1cccc(Cl)c1CSc1nnc(CN2CCOCC2)n1-c1ccccc1	1.8%	-4%	0%	-7

# Screening results from PubChem BioAssay.
